Screening data as filed in PubChem.
NPYLR7 agonist – mosquito NPYLR7 agonism. AID 1259423. HEK293T NPYLR7/Galpha15, GCaMP6s calcium fluorescence. 270,000 tested, 0.15% active. activation, % at 10 µM; in the data active means activation above about 40%;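 further: 0% = vehicle and 100% = reference agonist at the receptor; some compounds past the cut are filed as inactive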
NPYLR7 agonist max-min – also measured in NPYLR7 agonist; calls as there; activation, %; measured here: Max-Min RFU normalised activation; some inactives read as strong as hits;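 span of the calcium signal over five minutes; 0% = vehicle and 100% = native peptide agonist; compound fluorescence can raise it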
Numbers without * were called inactive; & = joins results of further samples. These rows are one share of the data; the hit share may differ from the screen's.

SMILES | NPYLR7 agonist | NPYLR7 agonist max-min
COc1cccc(-c2cc(C(=O)O)n3nc(C(C)(C)C)cc3n2)c1 | -8.4 | -1.7
CC(C)CNC(=O)C(=O)NCC1OCCN1S(=O)(=O)c1ccc(Cl)cc1 (stereo not given) | -2.8 | 4.4
COc1cccc(CC2CN(c3ccc(C)nn3)CCO2)c1 (stereo not given) | 38.5 | 25.7
COc1ccccc1CCNC(=O)c1cncn1-c1ccc(-c2cc(C)cc(C)c2)cc1 | 1.4 | 9.4
Cc1nn(-c2ccccc2)c(C)c1C=NNC(=O)CCc1c(C)n[nH]c1C | -3.7 | -7.6
Cc1ccc(OCC(=O)N2CCC(n3c(-c4ccccc4)nc4ccc(F)cc43)CC2)cc1 | 17.4 | 4.0
COC(=O)Cn1c(=NC(=O)c2cc(Cl)sc2Cl)sc2cc(F)cc(F)c21 | 4.7 | 2.2
CC(C)(CO)N1CN=C(NS(C)(=O)=O)NC1 | 1.2 | 0.4
Cc1cc(C(=O)N(CCN2CCOCC2)c2nc3c(F)cc(F)cc3s2)on1 | -0.8 | 5.7
COc1ccc(-c2nnc3ccc(OCCNC(=O)C(C)(C)C)nn23)cc1 | -9.3 | -14.1
CSc1nnc2ccc(-c3cccs3)nn12 | -13.1 | -10.7
COc1cccc(N2C(=O)CSC2c2cccc(NC(=O)c3ccc(C(F)(F)F)cc3)c2)c1 (stereo not given) | 7.4 | 13.0
COc1cn(CC(=O)N2CCc3ccccc32)c(CSc2nccc(C)n2)cc1=O | -4.8 | -5.8
CCn1cnnc1CCNC(=O)C(C)(C)c1ccccc1 | 2.6 | 15.5
Cc1ccc2c(c1)CCCN2C(=O)C1CCCN(C(=O)C(C)C)C1 (stereo not given) | 17.0 | 7.9
CCOC(=O)C(C)Sc1ncnc2sc(C)c(C)c12 (stereo not given) | 2.1 | 0.7
CCn1c(C(=O)OC)cc2sc(Cl)cc21 | -8.3 | -6.4
CCNC(=O)Nc1ccc(N(C)C)c(CN(Cc2ccco2)C(=O)C2CC2)c1 | -7.9 | -6.5
O=S(=O)(NCc1ccc2c(c1)OCO2)c1cnc[nH]1 | -6.2 | -6.4
CCN(Cc1noc(C)n1)C(=O)c1cc(CC(C)C)nn1C | -7.0 | -7.3
CCn1ncnc1C(C)NC(=O)c1cc2ccccc2oc1=O (stereo not given) | -1.9 | -11.1
COc1cc(NC(=O)N2Cc3cnc(Nc4ccc(Oc5ccccc5)cc4)nc3C2)cc(OC)c1OC | -4.1 | -7.4
CCCCc1nc(Cl)c(CN2C[C@H](N)C[C@H]2C(=O)NC)[nH]1 | 1.7 | 0.7
COc1ccc(-c2cc(CC(=O)NC(C)C)no2)cc1OC | 6.7 | 5.7
COc1ccc(C)c2sc(N(CCN(C)C)C(=O)CCS(=O)(=O)c3ccc(F)cc3)nc12 | -0.5 | -6.2
CCOC(=O)C1CCN(C(=O)c2c(-c3c(F)cccc3Cl)noc2C)CC1 | 10.5 | 11.8
CCCCOc1ccc(C(=O)Nc2cccc(C3SCC(=O)N3c3ccc(F)cc3)c2)cc1 (stereo not given) | 1.9 | 11.3
O=C(NCCc1ccccc1Cl)C1CCC(=O)N(C2CCCCCC2)C1 (stereo not given) | 4.9 | 2.0
O=C(Cn1cnc2c(cnn2C2CCS(=O)(=O)C2)c1=O)c1ccc(F)cc1 (stereo not given) | 5.7 | -0.7
CCOc1ccc2ccccc2c1C(=O)N1CCC1(C)C(=O)NC(C)C (stereo not given) | -6.8 | -6.3
CC(c1ccc2ccccc2c1)N(C)C(=O)CCc1cc(=O)[nH]o1 (stereo not given) | 3.4 | 18.7
COc1ccc(S(=O)(=O)N(CC(=O)NCc2ccco2)c2ccc(C)cc2)cc1OC | -20.8 | -11.7
O=C1CCC(CCC(=O)N2CCN(c3ccccc3F)CC2)(Cc2ccc3ccccc3c2)N1 (stereo not given) | 4.0 | 5.4
CSc1ccc(-c2nccn2CCC2CCCN2C)cc1 (stereo not given) | 30.9 | 15.3
Cc1nn(-c2ccc(F)cc2)c2nc(Cc3ccccc3)nc(N3CCCN(C(=O)N(C)C)CC3)c12 | -7.7 | 7.2
c1ccc(C2NCCn3cccc32)nc1 (stereo not given) | 2.1 | 0.0
c1ccc(C2CN(C3CC3)CCN2)cc1 (stereo not given) | -2.8 | 4.8
CCCNC(=O)Cn1nc2c(c1NC(=O)COc1ccc(C(C)C)cc1)CSC2 | -11.8 | -16.5
COc1cccc(C(=O)N(Cc2ccco2)Cc2nccn2Cc2cccc(C(F)(F)F)c2)c1 | 22.7 | 22.5
Cc1ccc(Nc2nc(NCC3CCCO3)nc3[nH]ncc23)cc1 (stereo not given) | 3.7 | 1.3
Cn1ncc2c(=O)n(CC(=O)Nc3ccccc3Br)cnc21 | 8.1 | 12.1
CN(Cc1ccc(Cl)cc1Cl)Cn1ccn(C)c1=S | 8.8 | 13.5
COc1cc(/C=C2\C(=O)N(c3cccc(Cl)c3)N=C2C)ccc1OCc1ccccc1 | 8.6 | 18.1
Cc1cc(=O)[nH]c(-n2nc(C3CC3)cc2NC(=O)COc2ccc(Cl)cc2)n1 | 3.1 | 0.9
CS(=O)(=O)c1ccc(S(=O)(=O)N2CCC(c3c[nH]c4ccc(F)cc34)CC2)cc1 | 14.3 | 5.1
C=CC(C)(C)C12Nc3c(ccc4c3OC(C)(C)C=C4)C1(O)CC1C(=O)N3CCCC3C(=O)N12 (stereo not given) | -4.1 | -14.7
CCCc1nc(CNC(=O)C2COc3ccccc3O2)cs1 (stereo not given) | 8.1 | 4.0
Cc1cc(N(C)C2CCCCC2)nc(SCc2cccc(C(=O)N3CCCC3)c2)n1 | 6.1 | 5.7
CSc1nc2nc(C)c(CC(=O)NC(C)CCc3ccccc3)c(C)n2n1 (stereo not given) | -5.4 | -8.0
N#Cc1ccccc1CN(Cc1cccn1Cc1cccc(C(F)(F)F)c1)C1CCCCC1 | -2.5 | 0.6
O=C1CNC(=O)N1Cc1nc(Cc2ccccc2)n[nH]1 | 16.2 | 5.9
CCC(=O)c1cccc(-c2ccc(CN(C)C)cc2)c1 | 6.2 | 4.9
CCOc1ccccc1NC(=O)Cn1cccc(-c2nc(-c3ccc(C)cc3)no2)c1=O | 1.4 | -2.4
NC(=O)C1CCN(C(=O)c2csc(Nc3ccc(OC(F)F)cc3)n2)CC1 | 13.8 | 2.2
COc1ccccc1C(=O)C1CCCN(C(=O)Nc2cccc(SC)c2)C1 (stereo not given) | 7.7 | 3.3
Cc1n[nH]c(C)c1S(=O)(=O)N1CCCCC1 | 3.8 | 3.0
CC(c1n[nH]c(Cc2ccccc2)n1)n1cnc2ccccc2c1=O (stereo not given) | -6.4 | -10.3
Cc1cccc(-n2nc3c(c2NC(=O)CCC2CCCCC2)CS(=O)C3)c1C (stereo not given) | -3.5 | -3.8
CCCCC(O)CN(CCC)Cc1c(C)nn(-c2ccc(F)cc2)c1Oc1ccccc1F (stereo not given) | -6.4 | 0.1
Cc1[nH]n(-c2ccccc2)c(=O)c1N=Nc1c(Cl)cc([N+](=O)[O-])cc1Cl | -7.6 | -11.2

(further entries)
SMILES | NPYLR7 agonist | NPYLR7 agonist max-min
CCOc1ccc(-c2nc(Cn3ccn4nc(-c5ccc(OC)cc5)cc4c3=O)c(C)o2)cc1 | 18.4 | 11.6
CCc1nnc(CNc2nc(-c3ccccc3)nc3c2CCNC3)s1 | -4.6 | -5.0
COc1ccc(NS(=O)(=O)c2ccc(Oc3cc(OC)cc(OC)c3)c([N+](=O)[O-])c2)cc1 | -1.6 | 2.7
O=C(C1CCN(CN2C(=O)NC3(CCCCC3)C2=O)CC1)N1CCCCCC1 | 5.0 | 5.8
CC(CCc1ccccc1)NC(=O)CSc1nc(Cl)cc(N(C)C2CCCCC2)n1 (stereo not given) | 12.9 | 9.3
CCOc1ccc(NCC(=O)NCC(=O)N2CCCC2)c(C(F)(F)F)c1 | 10.3 | 5.9
Cn1c(=O)cc(C(C)(C)C)[nH]c1=O | 1.2 | 1.9
CNC(=O)CN(C)C(=O)c1cc(Cl)c(Cl)n1C | 1.7 | 0.9
CC(Cn1cccn1)C(=O)N1C[C@H]2C[C@H](O)[C@@H](O)C[C@H]2C1 (stereo not given in full) | -2.1 | -1.3
Brc1ccc2ncnc(NCc3ccco3)c2c1 | 6.1 | 1.6
CN1CCN(CC/C=C2/c3ccccc3Sc3ccc(S(=O)(=O)N(C)C)cc32)CC1 | 2.0 | -35.4
COC(C(=O)N(C)Cc1nc2ccccc2n1C)c1ccccc1 (stereo not given) | 0.6 | 0.6
CC1=NNC(=O)C1CC(=O)N/N=C\C(C)=C\c1ccccc1 (stereo not given) | -2.7 | -9.0
CSc1nc(C2CC2)cc(C(=O)O)c1C#N | 5.1 | 11.1
Cc1ccc(OCCN(C)C(=O)C2CC23CCN(Cc2ccc(F)cc2F)CC3)cc1 (stereo not given) | 25.8 | 5.3
CCc1cnc(CCNC(=O)NC(C)(C)c2nc(C)cs2)s1 | 6.9 | 5.9
NC(N)=NCCCCN=C(N)N | -5.7&-0.2&3.1 | -12.9&-1.9&-3.9
C=CCN(Cc1nccn1Cc1c(F)cccc1Cl)C(=O)c1ccc(Cl)cc1 | 18.1 | 22.1
Cc1ccn2c3c(c(C(=O)OC(C)C)c2c1)C(=O)c1ccccc1C3=O | -3.4 | -7.3
COc1cccc(CNC(=O)C2(N3CCCCC3)Cc3ccccc3C2)c1 | 0.7 | -0.2
NC(=O)CSc1nc2[nH]ncc2c(=O)n1-c1ccccc1 | 8.0 | 10.6
CCc1cccc2c(C(CC(=O)N3CCC4(CC3)OCCO4)c3cccc4c3OCO4)c[nH]c12 (stereo not given) | 27.6 | 30.6
CC(C)(C)CN1CC(NC(=O)CSc2ccccc2)CC1=O (stereo not given) | 12.8 | 6.1
CC(C)c1ccc(NC2CCCN(C(=O)c3cc(=O)n(C)c(=O)n3C)C2)cc1 (stereo not given) | 14.6&0.5 | 11.8&-0.1
Nc1cc(-c2cccc(C(F)(F)F)c2)nn1-c1ccc(C(=O)N[C@H](CO)Cc2ccccc2)cc1 | -4.3 | -18.1
O=S(=O)(NCCc1nnc2ccc(SCc3ccccc3)nn12)c1ccccc1 | 1.5 | -8.8
NS(=O)(=O)c1ccc(NN=Cc2ccco2)c([N+](=O)[O-])c1 | 4.2 | 1.0
COCCn1c(=NC(=O)c2ccno2)sc2cccc(F)c21 | -6.7 | -12.0
c1csc(-c2csc(N3CCCCC3)n2)c1 | 2.6 | 2.2
O=C1CCC(C(=O)N2CCSCC2)CN1CCCc1ccccc1 (stereo not given) | -9.1&3.9 | -8.6&0.9
Cc1cccc(N2C(=O)C(c3c(C)[nH]n(-c4ccccc4)c3=O)=C([n+]3ccc(C)c(C)c3)C2=O)c1 | -8.2 | -1.8
COc1ccc(OCC(=O)N=Nc2c(O)n(C)c3c(C)cc(Br)cc23)cc1 | 17.7 | 6.0
COc1ccc(-c2[nH]ncc2CN2CCC(CCC(=O)Nc3cccc(C)c3)CC2)cc1 | 7.1 | 4.3
CCCNc1ccc(S(=O)(=O)N2CCCC2)cc1N | -1.0 | -1.6
COc1ccc(-c2csc(-n3[nH]c(-c4ccc([N+](=O)[O-])cc4)c(N=Nc4ccc5ccccc5c4)c3=O)n2)cc1 | -5.5 | -10.2
Cc1ccoc1C(=O)N(C)Cc1nc2ccc(F)cc2[nH]1 | -1.2 | -4.2
COc1ccc(CNC(=O)CSc2n[nH]c(=O)c3cc(-c4ccc(C(C)C)cc4)nn23)cc1 | -3.3 | -6.4
O=C(NC1CCS(=O)(=O)C1)N1CCOCC1 (stereo not given) | 0.9 | -1.6
O=C(Cc1cn2ccsc2n1)NN=C1CCSc2ccc(F)cc21 | -0.3 | -2.6
CCCN(CC(=O)N(Cc1cccn1C)CC(C)C)C(=O)Nc1ccc(F)c(F)c1 | 14.0 | 15.2
O=C(NC1CCc2[nH]c3cc(Cl)cc(Cl)c3c2C1)c1ccc(F)c(F)c1F (stereo not given) | 0.3 | 12.4
CC(CCn1cccn1)NCc1c(C(=O)N2CCCCCCC2)nc2ccc(Cl)cn12 (stereo not given) | 11.8&7.5 | 4.6&13.2
COCCN(Cc1ccc(OC)cc1)c1c(C)nc2ccc(C(=O)NCCN3CCOCC3)cn12 | -6.6 | -10.8
O=C1/C(=C/C=C/c2ccccc2)Oc2cc(OC(=O)C3CC3)ccc21 | -4.2 | -7.4
CCCCOc1ccc(C(=O)NCc2ccc3c(c2)cc(C)n3C)cc1 | 1.4 | -3.1
C=CCCC(O)CNC(c1nc(-c2cccc(C(F)(F)F)c2)no1)C(C)CC (stereo not given) | -1.1 | 12.7

Filtered by structure, the compounds so far containing an aryl thioether with sulfur outside any ring
SMILES | NPYLR7 agonist | NPYLR7 agonist max-min
CSc1nnc2ccc(-c3cccs3)nn12 | -13.1 | -10.7
COc1cn(CC(=O)N2CCc3ccccc32)c(CSc2nccc(C)n2)cc1=O | -4.8 | -5.8
CCOC(=O)C(C)Sc1ncnc2sc(C)c(C)c12 (stereo not given) | 2.1 | 0.7
CSc1ccc(-c2nccn2CCC2CCCN2C)cc1 (stereo not given) | 30.9 | 15.3
Cc1cc(N(C)C2CCCCC2)nc(SCc2cccc(C(=O)N3CCCC3)c2)n1 | 6.1 | 5.7
CSc1nc2nc(C)c(CC(=O)NC(C)CCc3ccccc3)c(C)n2n1 (stereo not given) | -5.4 | -8.0
COc1ccccc1C(=O)C1CCCN(C(=O)Nc2cccc(SC)c2)C1 (stereo not given) | 7.7 | 3.3
CC(CCc1ccccc1)NC(=O)CSc1nc(Cl)cc(N(C)C2CCCCC2)n1 (stereo not given) | 12.9 | 9.3
CSc1nc(C2CC2)cc(C(=O)O)c1C#N | 5.1 | 11.1
NC(=O)CSc1nc2[nH]ncc2c(=O)n1-c1ccccc1 | 8.0 | 10.6
CC(C)(C)CN1CC(NC(=O)CSc2ccccc2)CC1=O (stereo not given) | 12.8 | 6.1
O=S(=O)(NCCc1nnc2ccc(SCc3ccccc3)nn12)c1ccccc1 | 1.5 | -8.8
COc1ccc(CNC(=O)CSc2n[nH]c(=O)c3cc(-c4ccc(C(C)C)cc4)nn23)cc1 | -3.3 | -6.4
